PMP22 txn prim = Cell-based coincidence reporter assay to measure PMP22 gene transcription in S16 Pmp22-F2sN cells - Primary screen | S16 Pmp22-F2sN Schwann cells (luciferase reporters placed in the Pmp22 gene), FLuc/NLuc coincidence luminescence, 24 h | 2% of 43,000 active | AID 1508649, 2021 | Potency, µM (highest dose often 57.5 µM), without a hit: at the top dose activity change, negative = inhibition, hits mostly inhibitors; active = clear falling dose curves in both reporters; inconclusive = both reporters move, but less clearly or upward; inactive = either reporter flat; the % is the NLuc reporter signal; further: on the % scale 0 is the no-effect control and ±100 the full control effect; some results filed as inactive show a strong effect at the top dose
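Schwann cells carrying the coincidence reporter were exposed to library compounds for 24 h at 37C, then lysed and read for FLuc and, after quenching, NLuc luminescence on a CCD imager.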
HTT prom inh = Primary qHTS for Identification of Small Molecule Inhibitors of Huntingtin Promoter Activity. HEK293 HTT promoter firefly luciferase reporter (activity 0% = vehicle and -100% = no light), 24 h. Potency, µM (series often up to 57.5 µM), for the others: top-dose activity change, negative = inhibition, usual class: inhibitors. 0.93% of 48,000 active. AID 1508623, 2021; active means well fitted inhibition curve with a large enough effect; inconclusive means small, poorly fitted or top-dose-only effect; inactive means no such curve, though single readings can be large or run the other way; further: nearly all actives have a fitted effect of over 50% in size
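HEK293 cells carrying firefly luciferase reporters were seeded at 2,500 per well in Opti-MEM and cultured for 24 h. They were then treated with compounds at up to 57.5 uM final for 24 h at 37 degrees C before Dual-Glo luminescence readout.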
Numbers without * were called inactive; ? = inconclusive; / = not tested or not shown; [ ] = another dose, or the depositor's remark. Potency means the concentration at half of the fitted maximal effect. Outcome played no part in choosing rows; any-hit rate near 2.6%.

Sample of the layout, 4 compounds:
#	SMILES	PMP22 txn prim	HTT prom inh
1	CC1CCN(S(=O)(=O)c2cccc(C(=O)N(C)C3(C)CCS(=O)(=O)C3)c2)CC1 (centres undefined)	-9%	-28%
2	CCCCCn1c(=O)[nH]c2cc(C(=O)NCc3ccc(Cl)cc3)ccc2c1=O	-1%	0%
3	Cc1cc2c(cc1C)NC(CC(=O)Nc1ccccc1)C(=O)N2 (centres undefined)	?	-6%
4	CCS(=O)(=O)N1CCc2cc(C(=O)NCCc3ccc(OC)c(OC)c3)ccc21	15%	?

All compounds of this part, from the first entry:
#	SMILES	PMP22 txn prim	HTT prom inh
1	CC1CCN(S(=O)(=O)c2cccc(C(=O)N(C)C3(C)CCS(=O)(=O)C3)c2)CC1 (centres undefined)	-9%	-28%
2	CCCCCn1c(=O)[nH]c2cc(C(=O)NCc3ccc(Cl)cc3)ccc2c1=O	-1%	0%
3	Cc1cc2c(cc1C)NC(CC(=O)Nc1ccccc1)C(=O)N2 (centres undefined)	?	-6%
4	CCS(=O)(=O)N1CCc2cc(C(=O)NCCc3ccc(OC)c(OC)c3)ccc21	15%	?
5	Cc1ccc2c(c1)C(=O)OC(C(=O)Nc1ccccc1C(=O)O)C2 (centres undefined)	32%	17%
6	Fc1ccc(CNc2cc(-c3ccccc3)nc3nncn23)cc1	?	-27%
7	COc1ccc(Br)cc1C1C(C(=O)Nc2ccc(C)cc2C)=C(C)Nc2ncnn21 (centres undefined)	-5%	-13%
8	COc1ccc(CNC(=O)CSCc2nc(-c3ccccc3C)oc2C)cc1	-2%	-12%
9	COc1ccc(CNC(=O)C2CCN(c3nc4ccccc4[nH]3)CC2)c(OC)c1	-9%	6%
10	O=c1cc(-c2ccccc2)oc2cc(O)cc(O)c12	/	43%[activator]
11	COC(=O)c1c(NC(=O)c2ccc(S(=O)(=O)N3CCCCC3C)cc2)sc2c1CCN(C(C)C)C2 (centres undefined)	?	-9%
12	CC(=O)c1ccc(NC(=O)Nc2ccc3snnc3c2)cc1	?	23%
13	Cc1ccc2[nH]c(CSc3nnc(NC(=O)COc4ccccc4F)s3)cc(=O)c2c1	-1%	?
14	COc1cccc(N2C(=O)C(CC(=O)Nc3ccc(Cl)cc3)N(Cc3ccc4c(c3)OCO4)C2=O)c1 (centres undefined)	?	?
15	COc1ccc(N2CCN(CC(O)COc3ccc(C)c(C)c3)CC2)cc1 (centres undefined)	-15%	-22%
16	CCc1ccc(-n2c3nc(=O)[nH]c(=O)c-3cc3c(C)nn(-c4ccccc4)c32)cc1	2%	-9%
17	COC(=O)c1cc2oc(C)cc2n1Cc1ccc(Cl)cc1	8%	-13%
18	CCOc1ccc(N2C(=O)c3[nH]nc(-c4ccc(OC)cc4)c3C2c2cccs2)cc1 (centres undefined)	?	?
19	Cc1ccc(C)c(NC(=O)Cn2cnc3c(oc4ccccc43)c2=O)c1	6%	-7%
20	COc1ccc(-c2onc(C)c2C)cc1S(=O)(=O)Nc1cccc(C#N)c1	?	?
21	CCC(=O)OCC(=O)[C@@]1(OC(=O)CC)[C@@H](C)C[C@@H]2[C@H]3CCC4=CC(=O)C=C[C@]4(C)[C@@]3(F)[C@@H](O)C[C@@]21C	/	-13%
22	O=C(CCCn1c(=O)c2ccccc2n(CC(=O)Nc2ccc(F)cc2F)c1=O)NCc1ccccc1Cl	?	-19%
23	COc1cccc(CC(=O)Nc2ccc3nc(N4CCC(C)CC4)cc(C)c3c2)c1	?	?
24	CN1C(=O)C2(c3ccccc31)N(c1cccc(C(F)(F)F)c1)C(=O)CS2(=O)=O (centres undefined)	4%	-24%
25	Cc1ccc(-c2cc(C(=O)N3CCN(c4ccccc4)CC3)c3ccccc3n2)cc1C	?	15%
26	COc1cc(NC(=O)CCc2c(C)nc3nc(-c4cc(OC)cc(OC)c4)nn3c2C)cc(OC)c1	-32%	-12%
27	COc1ccc(-n2nc3c(N4CCCC(C(=O)NCCc5ccccc5C)C4)nnc(C)c3c2C)cc1 (centres undefined)	18µM*	-18%
28	COc1cccc(Cn2cc(C(=O)c3ccccc3)c(=O)c3cc4c(cc32)OCO4)c1	-3%	?
29	COc1ccc(N2C(=O)CSC23C(=O)N(Cc2ccccc2F)c2ccccc23)cc1Cl (centres undefined)	?	?
30	COCCNC(=O)c1ccc2c(c1)N(Cc1cccc(Cl)c1)C(=O)c1ccccc1S2=O (centres undefined)	-2%	-18%
31	Cc1ccccc1CS(=O)(=O)Cc1ccc(C(=O)NCCc2ccc(Cl)cc2)o1	?	?
32	O=C(CCn1cccn1)Nc1cccc(C(F)(F)F)c1	3%	-1%
33	Cc1ccc(NC(=O)Cn2nnc(-c3ccccc3)n2)c(C)c1	6%	-4%
34	CCOc1ccc(-c2nc(CSCC(=O)NCc3ccc(Cl)cc3)c(C)o2)cc1	?	?
35	Nc1ccc(C(=O)N2CC3CC(CN(Cc4ccccc4)C3)C2)cc1	/	0%
36	CC(C)Oc1ccc(C(=O)Nc2nc3c(s2)CC(C(C)(C)C)CC3)cc1 (centres undefined)	-27%	?
37	Cn1c(=O)c2nc3ccc(NC(=O)C(F)(F)F)cc3nc2n(C)c1=O	-11%	14%
38	CCOC(=O)c1ccccc1NC(=O)CSc1ncc2c(n1)-c1ccccc1N(CC)S2(=O)=O	?	?
39	CCc1ccc(N(CC)C(=O)c2cc3c(=O)oc4ccc(C)cc4c3s2)cc1	-28%	7%
40	Cc1cccc(NC(=O)c2sc3nc4c(cc3c2N)CN(Cc2ccccc2)CC4)c1	?	-20%
41	Cc1ccc(-c2cc(C(=O)N(Cc3ccc(C(C)(C)C)cc3)Cc3ccco3)no2)cc1	5%	3%
42	CCC(C(=O)Nc1cc(-c2nc3cccnc3s2)ccc1C)c1ccccc1 (centres undefined)	2%	22%
43	O=C(COc1cccc(Cl)c1)N1CCC(c2nc3ccccc3s2)CC1	-11%	-27%
44	CCCN(CCC)C(=O)Cn1c(=O)n(Cc2ccc(C(=O)NCCc3ccc(OC)c(OC)c3)cc2)c(=O)c2ccccc21	?	-17%
45	CCOc1ccc(C(=O)Nc2cccc(OCc3cc(=O)n4cc(C)sc4n3)c2)cc1	?	10%
46	CC(C)[N+](C)(C)CC(O)COc1cccc2ccccc12 (centres undefined)	/	3%
47	COc1cccc(-n2c(SCC(=O)Nc3ccc4c(c3)OCO4)nc3c([nH]c4ccccc43)c2=O)c1	-1%	-9%
48	CC(C)Oc1ccc(CNS(=O)(=O)c2cnc(N)nc2)cc1	7%	0%
49	CCOc1cccc2sc(NC(=O)c3ccc(S(=O)(=O)N4CCCCC4C)cc3)nc12 (centres undefined)	-4%	?
50	CC(C)(C)NCC(O)c1cc(O)cc(O)c1 (centres undefined)	/	-1%
51	CCCCCOc1ccccc1CN1C(=O)C(=O)c2cc(C)ccc21	14µM*	?
52	Cn1c(=O)oc2cc(S(=O)(=O)CCC(=O)NCCc3ccc(Cl)cc3)ccc21	-7%	-9%[11.5 µM]
53	COCCCNC(=O)C1CCN(c2cc(C)nc3c(-c4ccc(Cl)cc4)c(C)nn23)CC1	6%	-8%
54	CCC1CN(C(=O)NCc2ccc(C)cc2)c2cc(C)ccc2O1 (centres undefined)	?	-11%
55	COC(=O)c1ccc(OC)c(Cn2c(=O)n(Cc3ccccc3)c(=O)c3c2c2cc(OC)ccc2n3C)c1	-2%	-9%
56	O=[N+]([O-])c1ccc(Nc2ccccc2-c2ccccc2)c2nonc12	/	-16%
57	CC(C)Oc1ccc(CNC(=O)c2ccccc2NC(=O)c2nsc3ccccc23)cc1	-23%	9%
58	O=C(CCn1cccn1)NCc1ccc(Cl)cc1	-7%	-2%
59	CC(=O)c1ccc(C(=O)N(Cc2cccnc2)c2nc3c(Cl)cccc3s2)cc1	-50%	?
60	O=C(NCCC1=CCCCC1)c1ccc2c(c1)N(Cc1ccc(Cl)cc1)C(=O)c1ccccc1S2(=O)=O	-9%	-11%

Entries of single compounds as entered above. Screens in order: PMP22 txn prim, HTT prom inh
Record of O=[N+]([O-])c1ccc(Nc2ccccc2-c2ccccc2)c2nonc12 → /, -16%
Record of Cc1ccccc1CS(=O)(=O)Cc1ccc(C(=O)NCCc2ccc(Cl)cc2)o1 → ?, ?

Other structures:
#	SMILES	PMP22 txn prim	HTT prom inh
61	COCC(C)NC(=O)c1cc2c(=O)n3cccc(C)c3nc2s1 (centres undefined)	-34%	27%
62	CCOc1ccc(CCNC(=O)CN2N=C(c3ccccc3)CCC2=O)cc1OCC	11%	-24%
63	Cc1cccc(CSc2nc3c(c(=O)[nH]2)C(c2cccc(O)c2)CC(=O)N3)c1 (centres undefined)	7%	-22%
64	CCOc1ccc(CCNC(=O)c2cnc3c(-c4ccccc4)c(C)nn3c2C)cc1OCC	0%	-15%
65	Fc1ccc(-c2cc(-c3ccccc3)c3c(n2)-c2ccccc2OC3)cc1	12%	-10%
66	COc1cc(NC(=O)Cn2nnnc2-c2ccccc2F)cc(OC)c1OC	3%	2%
67	CCc1ccc(OCCSc2nc3ccccc3n2CC(=O)N2CCCCC2)cc1	?	-38%
68	COc1ccc(CNc2nc(-c3ccc(Cl)cc3)nn2S(=O)(=O)c2ccc(C)cc2)cc1	2%	-16%
69	O=c1cc(CSc2ncn[nH]2)[nH]c2c(Cl)cccc12	-24%	0%
70	CN(c1nnc(NC(=O)Nc2ccccc2C(F)(F)F)s1)C1CCCCC1	-32%	-13%
71	O=C(NCCCN1CCN(c2ccc(F)cc2)CC1)c1cc2c(s1)-c1ccccc1OC2	?	-28%
72	O=C(Cn1c(=O)n(-c2ccccc2)c(=O)c2sc3ccccc3c21)NC1CCCC1	-18%	-9%
73	CCCNC(=O)c1cnc2sc(N3CCCCCC3)nn2c1=O	-12%	20%
74	COc1ccc(-c2cc(C(F)(F)F)nc(SCC(=O)N(C)Cc3ccccc3)n2)cc1OC	?	-20%
75	CC1=C(C(=O)NCc2ccccc2Cl)C2(CCCCCC2)OC1=O	-11%	-9%
76	CCNc1nc2c(c(=O)n(C)c(=O)n2C)n1CC(O)COc1ccccc1 (centres undefined)	?	-22%
77	Cc1ccc(C(=O)c2cn(CC(=O)Nc3ccc(C(C)C)cc3)c3nc(C)ccc3c2=O)cc1	?	8%
78	O=C(CSc1nc(=O)n(Cc2ccco2)c2c1CCC2)NCc1ccccc1Cl	?	4%
79	CCOc1ccccc1NC(=O)Nc1nnc(N(C)Cc2ccccc2)s1	-16%	38%[activator]
80	CC(C)c1cnc2c(c1SCC(=O)NC(C)(C)C)c(=O)n(C)c(=O)n2C	-3%	6%
81	O=C(CSc1nc2ccccc2n1Cc1cccc(F)c1)N1CCN(c2ccc(F)cc2)CC1	-17%	?
82	Cc1ccc(-c2nc3c4ccccc4n(CC(=O)NCc4ccc(F)cc4)c(=O)n3n2)cc1	-21%	17%
83	Cn1c(=O)oc2cc(S(=O)(=O)CCC(=O)NCc3ccccc3)ccc21	-15%	-10%[11.5 µM]
84	COc1ccc(-c2cccc(NS(=O)(=O)c3cc(C)c(OC)c(C)c3C)c2)nn1	?	11µM*
85	COc1ccc(NC(=O)Nc2nnc(N(C)C3CCCCC3)s2)c(OC)c1	7%	-11%
86	CC(=O)c1cccc(NC(=O)c2cc3nc(-c4ccc(Br)cc4)cc(C(F)(F)F)n3n2)c1	?	?
87	Cc1ccc(C)c(NC(=O)CCCN2C(=O)COc3ccc(C)cc32)c1	?	-29%
88	Cc1cc2oc3c(c(=O)c2cc1C)C1(C(=O)N(C)c2ccccc21)N(CCO)C3=O (centres undefined)	5%	-15%
89	Cc1ccc(/C(=C\CN2CCCC2)c2ccccn2)cc1	/	-13%
90	COc1ccc(CCNC(=O)CCc2c(C)nc3c4c(C)cc(C)nc4nn3c2C)cc1OC	-30%	20%
91	Cc1nc2nc(NCc3cccc(Cl)c3)[nH]n2c(=O)c1Cc1ccccc1	13%	-10%
92	O=C(Nc1nc2ccccc2n1CCOc1ccccc1Cl)c1ccccc1	?	64%[activator]
93	Cc1ccc2nc(CN3CCN(S(=O)(=O)c4ccc(F)cc4)CC3)oc2c1	?	-35%
94	COc1ccc(CNC(=O)COCc2cc(-c3ccc4c(c3)OCO4)on2)cc1	11%	-26%
95	Cc1ccc(NC(=O)CN2CCN(C3CCCCC3)C(=O)C2=O)cc1	?	-21%
96	Cc1nc2nc(-c3ccc(Cl)cc3Cl)nn2c(C)c1CCC(=O)Nc1ccc(F)cc1	-3%	7.9µM*
97	N#Cc1ccc(-c2cccs2)nc1SCC(=O)Nc1cccc(C(F)(F)F)c1	?	-32%
98	COc1ccc(OC)c(CCNC(=O)c2nc(-c3ccc(Cl)cc3)n3c2CCCCC3)c1	?	?
99	Cc1ccc(NC(=O)c2c(C)oc3nc(C)nc(N4CCCC4)c23)c(C)c1	-9%	-4%
100	Cc1ccccc1C(=O)Nc1nnc(S(=O)(=O)N(C)Cc2ccccc2)s1	27%	-26%
101	COc1ccc(NC(=O)C2CCC(CNS(=O)(=O)c3csc(C(N)=O)c3)CC2)cc1 (centres undefined)	?	-22%
102	CCOc1ccc(CCNC(=O)Cn2nc(C)c3c(C)n(-c4ccccc4)nc3c2=O)cc1OCC	0%	-12%

Screens: PubChem BioAssay, National Center for Advancing Translational Sciences (NCATS)
